From PubChem
Calb FLC: affects C. albicans growth with fluconazole | 0.57% of 300,000 active | growth inhibition, % (no concentration beside the values) | AID 1979 | C. albicans CaCi-2 (fluconazole-resistant clinical isolate) + fluconazole, Alamar Blue growth, 48 h;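 active = most replicates above 75%; inconclusive = exactly half above 75%; inactive = most below 75%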;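 also: all wells also contain fluconazole at 8 µg/ml as a sub-toxic cotreatment; 0% = median of DMSO wells and 100% = median of geldanamycin control wells; wells of about 8 µL received 7.5 nL stock; the first replicate is given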
T cruzi inh: T. cruzi replication inhibition. T. cruzi beta-gal in NIH3T3, luminescence, 90 h. inhibition, % (no concentration beside the values). 1.4% of 300,000 active;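 active = mean inhibition across valid replicates above about 55%, limit read from the data; inconclusive = mean below that limit but half or more replicates reach it; inactive = mean below it, under half of replicates reach it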;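 also: signal also drops with host cell toxicity which is not excluded here; 0% = plate median of DMSO wells and 100% = zero luminescence signal; higher percent means less beta-gal luminescence so fewer parasites; stock transfer was 50 nL into about 50 µL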
Vif TR-FRET: HIV-1 Vif–A3G interaction blockers – biochemical, TR-FRET, GST-Vif 1-94, biotin-A3G peptide, dose response retest, primary screen (AID 1117319). TR-FRET GST-Vif / biotin-A3G peptide binding; higher % means a stronger effect; test concentration not given here; strong numbers were not always called active. inhibition, %, or IC50 in µM where a hit was titrated. 0.57% of 260,000 active;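 active = above the screen mean plus three standard deviations and confirmed in dose response; inconclusive = results disagree or hit not tested in dose response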;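 also: Vif residues 1-94 fused to GST binding biotinylated APOBEC3G peptide 110-148; 0% = full assay without inhibitor and 100% = GST in place of GST-Vif; retest series ran down from 100 µM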
A1 inh: inhibitors of the anti-apoptotic protein A1, read as caspase activation; MEF A1-2A-BIM cells, Caspase-Glo 3/7 luminescence, 3 h; percent of clofoctol response, vehicle zero; caspase activation, % (test concentration not listed); 0.066% of 330,000 active; AID 2462;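 active = over half of replicate activation scores above 10%, or exactly half above 10 with the replicate mean above 10; inconclusive = replicate mean below 10 yet half the replicates above 10; inactive = over half of replicates below 10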;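 also: wells of about 30 µL received 50 nL stock; many hits fall short of the cut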
RanGTP-Imp inh: inhibitors of RanGTP-importin-beta interaction, primary screen, biochemical, FRET, CFP-Ran, YFP-importin-beta, homogeneous | AID 2216 | cell-free CFP-Ran/YFP-importin-beta FRET ratio | inhibition, % (concentration not given with the values) | 1.1% of 300,000 active;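 active = most replicates above 15%; inconclusive = exactly half above 15%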;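 also: 0% = DMSO wells and 100% = Ran loaded with GDP instead of GTP; wells of about 40 µL received 100 nL stock; the first replicate is given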
LANA-H2A inh: blocks KSHV LANA binding to histone H2A/H2B; Q9QR71; cell-free LANA-H2A/H2B peptide, fluorescence polarization; inhibition, % (no concentration beside the values); 0.6% of 320,000 active; AID 2629; in the data active = inhibition mostly above about 10%, no sharp cut-off; inactive = mostly below about 6.7%;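 also: stock transfer was 7.5 nL into about 10 µL; 0% = median of vehicle wells and 100% = median of positive control wells; one replicate is shown; the record names a cut of 25% in any replicate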
AF4-AF9 inh: MLL-AF4/AF9 protein interaction inhibition; AlphaScreen, biotin-AF4 peptide binding to FLAG-AF9; AID 651704; 0.47% of 350,000 active; inhibition, % at 10 µM; P42568;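 active = every replicate reaching a set inhibition limit, whatever the replicate mean, cut at about 25% in these data; inconclusive = mean inhibition reaches that limit but some replicates miss it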;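 also: 0% = plate neutral control median and 100% = total signal loss; the record names both 10 and 1 µM as test concentration; the first replicate is given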
Target sequence (P42568 whole entry, looked up): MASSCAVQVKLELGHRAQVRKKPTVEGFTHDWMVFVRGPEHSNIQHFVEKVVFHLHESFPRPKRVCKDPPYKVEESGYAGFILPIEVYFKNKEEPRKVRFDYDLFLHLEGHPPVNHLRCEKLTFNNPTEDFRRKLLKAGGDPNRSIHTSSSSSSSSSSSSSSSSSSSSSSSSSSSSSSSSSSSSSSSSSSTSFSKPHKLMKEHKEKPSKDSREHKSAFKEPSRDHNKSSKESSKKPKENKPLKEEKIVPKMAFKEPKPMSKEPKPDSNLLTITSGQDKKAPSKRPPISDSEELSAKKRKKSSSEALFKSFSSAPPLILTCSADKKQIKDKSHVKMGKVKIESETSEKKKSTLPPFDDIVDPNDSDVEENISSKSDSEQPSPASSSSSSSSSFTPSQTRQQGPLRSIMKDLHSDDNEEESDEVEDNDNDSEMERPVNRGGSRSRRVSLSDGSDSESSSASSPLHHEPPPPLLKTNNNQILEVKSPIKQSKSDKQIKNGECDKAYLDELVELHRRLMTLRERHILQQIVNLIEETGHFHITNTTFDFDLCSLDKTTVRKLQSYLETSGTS
Beta apoptosis: blocks beta cell apoptosis; INS-1E cytokine-induced death, ATP luminescence, 48 h; percent of positive-control rescue, neutral wells zero; protection from apoptosis, % (concentration not given with the values); 0.8% of 300,000 active;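 active = all replicates at 75% or more, or half of them and the mean; inconclusive = half reach 75% but not the mean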;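 also: 0% = cytokine-treated negative control wells and 100% = positive control rescue; higher means more ATP so stronger rescue from cytokine killing; wells of about 40 µL received 100 nL stock; the first replicate is given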
An asterisk follows results filed as active; ? = inconclusive; . = not tested or not shown; & = joins results of further samples. This is a random part of the collection (roughly 4.3% active in at least one column).

Structure | Calb FLC | T cruzi inh | Vif TR-FRET | A1 inh | RanGTP-Imp inh | LANA-H2A inh | AF4-AF9 inh | Beta apoptosis
CCOc1ccc(C2CC(=O)NC2=O)cc1 (stereo not given) | 0 | 2 | . | 0.9 | -1.7 | -3.4 | -3.4 | 1
O=c1[nH]c(CN2CCCC2)nc2sc3c(c12)CCC3 | -8 | -9 | -3% | -0.1 | -3.8 | 0.3 | -7.0 | 1
Cc1nn(-c2ccccc2)c2sc(C(=O)N(CC(=O)NC3CCCC3)Cc3ccco3)cc12 | 0 | 24 | -2% | . | 1.5 | . | . | .
COc1cccc(/C=C/C(=O)NCc2cn3cc(Cl)ccc3n2)c1 | 3 | 11 | -7% | -0.4 | -4.3 | -1.8 | -1.0 | -2
CCN1C(=O)C(CC(=O)NC2CCCCC2)N(CC)C1=O (stereo not given) | -2 | -2 | -1% | 0.4 | ? | 0.7 | . | -2
COc1cc(C(c2c(C)[nH][nH]c2=O)c2c(C)[nH][nH]c2=O)ccc1OC(C)C | -5 | -1 | 0% | 0.7 | 8.7 | 9.1 | 2.3 | .
O=C(Cc1cccs1)N1CCN(c2cccc(Cl)c2)CC1 | 22 | 4 | 13% | -0.1 | 4.7 | 3.0 | 0.0 | -5
CC1CCN(C(=O)COC(=O)C2CCN(S(=O)(=O)c3ccc4c(c3)OCCO4)CC2)CC1 | . | 1 | 2% | 0.8 | -0.7 | 1.9 | -1.1 | -5
O=C(O)CCC(=O)NNc1ncnc2ccccc12 | 15 | -2 | 0% | ? | 1.9 | -5.0 | -1.7 | 2
S=C(NCC1CCCO1)Nc1cccc(Cl)c1 (stereo not given) | -3 | -18 | -11% | 0.3 | 6.8 | 9.0 | 1.5 | -5
COc1ccc(NC(=O)C2c3cc(OC)c(OC)cc3C(=O)N(C)C2c2cccnc2)cc1OC (stereo not given) | 16 | -2 | -2% | -0.6 | 3.3 | 3.6 | . | 1
C=CC[n+]1c(-c2ccc(OCC)cc2)csc1NNC(=O)Nc1ccccc1 | 7 | 21 | -2% | -0.5 | -0.2 | -1.9 | . | 99*
COc1ccc(OC)c(-c2nnc(SCC(=O)N3CCOCC3)o2)c1 | -3 | 1 | 12% | 0.0 | -1.1 | -3.8 | . | -1
O=C(N/N=C/c1cccs1)c1cccc(S(=O)(=O)Nc2ccc(Cl)cc2)c1 | -8 | -12 | -6% | -0.1 | 5.5 | 2.8 | -1.6 | 0
CN1N=C(C(C)(C)C)CSC1=Nc1ccccc1 | 3 | 14 | 4% | 0.1 | 3.4 | 0.8 | -0.7 | -2
COc1ccc(CC(=O)Nc2ccc(F)c(F)c2F)cc1S(=O)(=O)N1CCOCC1 | . | . | . | -0.4 | . | 140* | -9.3 | -3
Cc1c(OCC(=O)N2CCC(C(=O)O)CC2)ccc2c3c(c(=O)oc12)CCC3 | 1 | -8 | . | -0.7 | 1.7 | -1.1 | -2.8 | -3
COc1cc(/C=N/Nc2nc(Nc3ccccc3)nc(N3CCOCC3)n2)ccc1OC(=O)c1ccco1 | 10 | 62* | -4% | 1.7 | 0.4 | -0.4 | -2.4 | -4
N#Cc1ccc(C(=O)NC2CCCCCCC2)cc1 | -4 | -15 | . | -1.3 | 3.7 | 3.4 | 1.4 | 3
COc1cc(/C=C2\SC(=S)N(CCC(=O)N3CCCCC3)C2=O)cc(OC)c1OC | 6 | -4 | 4% | -0.2 | -4.0 | 7.3 | 9.3 | -50
OCCNC(=S)Nc1cccc(Cl)c1Cl | -8 | -16 | -3% | 0.4 | 2.2 | -1.5 | . | -3
Cc1csc(NC(=O)Nc2ccc(Cl)cc2)n1 | -23 | 10 | -10% | -0.6 | 1.7 | -1.4 | . | 2
CC(N=C1CC(C)(C)CC(=O)/C1=C(/O)CCCN1C(=O)c2ccccc2C1=O)C(=O)O (stereo not given) | 14 | 4 | -5% | 0.6 | -2.0 | 4.5 | -0.2 | 0
CCc1ccc(NC(=S)N(CCC(C)C)C2CCN(C(C)=O)CC2)cc1 | -5 | -1 | 0% | 0.3 | 5.6 | 1.4 | -11 | -3
O=C1CCC(=O)N1CNc1cccnc1 | 8 | -14 | -2% | -0.6 | 3.6 | 2.7 | . | -5
COc1cccc(OC)c1C(=O)Nn1c(-c2cccc(C)c2)nc2ccccc2c1=O | 7 | 4 | -15% | 0.1 | 3.1 | -3.9 | 1.2 | 2
CN1CCN(C(=O)c2ccccc2NC(=O)COc2ccccc2Cl)CC1 | 2 | -5 | . | 1.4 | -2.2 | 1.5 | 0.8 | -2
Cc1c(C(=O)O)cccc1-n1c(C)cc(/C=N/NC(=O)c2cc3ccccc3o2)c1C | 2 | 1 | . | 0.2 | 3.2 | 7.3 | . | 1
Cn1cnnc1Sc1cc(N2CCN(S(=O)(=O)c3ccccc3)CC2)ccc1[N+](=O)[O-] | 17 | 10 | -10% | 0.6 | -5.1 | 0.5 | 2.0 | -2
CNc1nc(-c2ccccc2)nc(-c2ccc(OC)cc2)c1C#N | -5 | -9 | -10% | 0.0 | ? | -1.8 | -0.4 | -5
Cn1c(SCC(=O)c2ccc3c(c2)OCO3)nnc1C1COc2ccccc2O1 (stereo not given) | 4 | 16 | 21% | -0.4 | -1.5 | 0.1 | . | -6
CC#CC(=O)N1CCCC(Cc2cccc(OC)c2)(C(=O)OCC)C1 (stereo not given) | 5 | -5 | . | -0.2 | 2.6 | -12 | 1.2 | .
COc1ccc(Cc2nnc(NC(=O)c3ccccc3F)s2)cc1 | -13 | -11 | . | -0.3 | -18 | 0.7 | -0.1 | -12
O=C(OCc1nnc(-c2ccccc2)o1)c1cc([N+](=O)[O-])ccc1Cl | -10 | -2 | ? | -0.7 | -0.5 | 1.0 | -13 | -11
CC(OC(=O)CCCc1nc2ccccc2s1)C(=O)NC(N)=O (stereo not given) | 6 | 1 | 5% | -0.1 | 7.9 | -0.4 | 2.0 | 2
COc1ccc(-c2c(C)nc3c(-c4ccccn4)cnn3c2N)cc1 | 14 | -9 | 8% | -5.2 | -0.9 | 0.2 | -3.0 | 28
COc1ccc(-c2ccc3c(N)c(C(=O)c4ccc(OC)c(OC)c4)sc3n2)cc1 | 8 | 13 | -1% | -0.1 | -3.0 | 4.1 | . | -3
O=C1c2ccccc2C(=O)C1c1ccnc2ccccc12 | 6 | 37 | -3% | -8.3 | -4.8 | -2.3 | . | 35
COc1cc(OC)cc(C(=O)NCc2ccc3c(c2)OCO3)c1 | -4 | 3 | 15% | -0.8 | 1.4 | 6.3 | 0.3 | -1
CCc1ccc(N2CC(C(=O)Nc3nccs3)CC2=O)cc1 (stereo not given) | 3 | -10 | 0% | 0.2 | 1.6 | 1.7 | . | 0
N#CCCN(Cc1cccnc1)C(=S)NC(=O)c1ccc(S(=O)(=O)N2CCCC2)cc1 | -28 | -18 | -2% | -0.3 | 2.4 | 4.8 | -2.7 | -9
O=C(NCc1cccc(C(F)(F)F)c1)c1cc(Cl)cc(Cl)c1 | -2 | 9 | 15% | -0.4 | 8.0 | 1.0 | . | -3
COc1ccc(C(=O)NCc2ccccc2OC)cc1 | -11 | -4 | 14% | 0.2 | -1.0 | 1.0 | . | -2
CCCCn1nnc(NC(=S)NC(=O)c2ccc(OCC)c([N+](=O)[O-])c2)n1 | 1 | -15 | 5% | -0.6 | -2.2 | 1.3 | -1.6 | -6
CCN(CC(=O)Nc1ccc(C(C)=O)cc1)CC(=O)Nc1ccccc1C(F)(F)F | -7 | 1 | 9% | -0.8 | -2.9 | 0.7 | -0.9 | -1
CCN(CC(=O)NC(=O)NCc1ccccc1)Cc1ccccc1 | -16 | 3 | -4% | -0.6 | 3.9 | -0.1 | -2.0 | -6
COc1ccc(N2CCN(C3CCCN(C(=O)CCN4CCCCO4)C3)CC2)cc1 (stereo not given) | -1 | -7 | . | . | -3.1 | . | 1.2 | .
COc1cc(NC(=O)CCS(=O)(=O)c2ccc3nc(C)sc3c2)cc(OC)c1OC | -5 | -17 | . | -0.9 | 1.0 | 1.6 | -0.7 | -4
O=C(Cn1cc(C(F)(F)F)ccc1=O)Nc1ccccc1 | 1 | 7 | -11% | 0.4 | 8.3 | 4.4 | -16 | -3
CCOC(=O)C1C(=O)C(C(=O)OCC)C(c2cccnc2)NC1c1cccnc1 (stereo not given) | 3 | -8 | 5% | 0.0 | -11 | 5.4 | . | -4
COc1ccc(C2/C=C\CN(CC3CC3)CC(=O)N2Cc2ccc(F)cc2)cc1 (stereo not given) | -11 | 0 | . | 0.2 | ? | 2.6 | 2.6 | -5
Cc1ccc(-c2cc(C(=O)NC3=NCCS3)c3cc(Br)ccc3n2)o1 | 3 | -3 | 25% | 0.4 | 0.4 | 0.1 | . | -6
COc1ccc(-n2nnc3c(=O)n(CC(=O)OCc4ccccc4)cnc32)cc1 | 6 | -10 | 23% | -0.2 | -0.5 | -3.9 | -4.4 | -2
c1ccc(Oc2ccc3ccccc3n2)cc1 | 2 | 6 | 15% | -3.1 | -0.8 | 7.5 | -2.1 | -1
COCCCN1C(=O)c2ccc(C(=O)N3CCN(c4ccccc4OC)CC3)cc2C1=O | -1 | -13 | . | -0.2 | 2.1 | -5.1 | 0.4 | -2
Cc1cc(Cl)ccc1Oc1cccc(C(=O)/C(C#N)=C/N(C)C)c1 | -1 | 18 | 2% | 0.4 | 0.2 | 9.2 | . | 0
NS(=O)(=O)c1ccc(N2CCN(CCOc3ccc(Cl)cc3)CC2)nc1 | 5 | 1 | -5% | 0.2 | 1.0 | -2.6 | 3.4 | -7
Cc1ccccc1S(=O)(=O)NCC1CCCO1 (stereo not given) | 7 | 2 | . | 0.3 | -3.9 | -2.6 | 0.8 | -5
COc1ccc(-n2nnnc2CNC(=O)c2ccc(S(=O)(=O)N3CCOCC3)cc2)cc1 | -5 | 0 | . | -0.1 | -1.0 | -8.6 | 7.0 | 1
CC(C)(C)C(=O)Nc1ccc2c(c1)OCCOCCOc1cc(NC(=O)C(C)(C)C)ccc1OCCOCCO2 | 8 | -5 | -1% | 1.7 | 14 | 4.2 | -1.1 | -4

Next part.
Structure | Calb FLC | T cruzi inh | Vif TR-FRET | A1 inh | RanGTP-Imp inh | LANA-H2A inh | AF4-AF9 inh | Beta apoptosis
COc1ccc(C2=CSC3=NCCN23)cc1Cl | -10 | 3 | -14% | 0.2 | 1.8 | 6.0 | 1.5 | -4
COC(=O)CN1C(=S)N(c2ccc(Cl)cc2)C(=O)C1CC(=O)Nc1ccc(Cl)cc1 (stereo not given) | -7 | 5 | -7%&1% | 0.6 | 0.5 | -0.8 | . | -1
COc1ccccc1NC(=S)N(CCN1CCCCCC1)Cc1cccs1 | 0 | 17 | . | 0.6 | 2.3 | -1.3 | 8.1 | -5
Cc1nccn1CCCNC(=O)CC1C(=O)NCCN1Cc1ccccc1C(F)(F)F (stereo not given) | -15 | -7 | 9% | 0.7 | 0.7 | 0.4 | 2.8 | -3
